Assay outcomes (PubChem)
CSC inhib: cancer stem cell viability inhibitors, primary screen, luminescence | 1.1% of 300,000 active | AID 2717, 2010 | inhibition, % at 7.5 µM | cancer stem cell-like cells viability;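 active means mean at 75% or more and at least half the replicates too; tested in HMLE shEcad cells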;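 further: 0% = median of negative and 100% = median of positive control wells; the first replicate is given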
Env fusion inh: inhibitors of HIV-1 Env-driven cell-cell fusion, primary screen, HeLa-JRFL effector, CEM21 target cells, luciferase; inhibition, % at 12.3 µM; 1.1% of 360,000 active; AID 651610, 2012;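 active means mean replicate inhibition score of at least 50 and every replicate individually at or above 50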;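 further: 0% = plate neutral controls and 100% = maraviroc near 300 nM; one replicate is shown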
MT1-MMP act inh: blockers of MT1-MMP proenzyme processing, primary screen, HT1080 RFP-PRO-GFP cells, GFP/RFP fluorescence. Matrix metalloproteinase-14 (Homo sapiens), P50281. GFP/RFP ratio fluorescence, overnight; percent of plate control window, DMSO zero. GFP/RFP ratio change, % at 20 µM. 0.061% of 360,000 active. AID 651647, 2012;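 active means GFP/RFP ratio change of at least 30% with cell ATP level not reduced by more than half and red fluorescence within 50% of control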; further: strong numbers were not always called active
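Test system: HT1080 cells expressing an RFP-PRO-GFP fluorescent reporter construct / Compound dosing: single-point 20 µM compound, 1% DMSO / Schedule: cells overnight before dosing, compound overnight, 37 °C, 5% CO2 / Evaluation: GFP/RFP fluorescence ratio / Control set: DMSO and RFP-L50D-GFP cell wells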
PABP polyA inh: PABP poly(A) RNA binding inhibitors, primary screen, biochemical, fluorescence polarization, uHTS. 1% of 290,000 active. AID 2014, 2009. Polyadenylate-binding protein 1 (Homo sapiens), P11940. inhibition, % at 35 µM;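 active means 50% or more with normal probe brightness, or confirmed in later tests; about a fifth of its hits are not listed in these tables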;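 further: calls also rest on retests at 20 µM and on dose response follow-up; controls were probe without protein and protein plus probe with vehicle; some compounds called inactive have numbers as strong as hits; many hits fall short of the cut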
Target sequence (P11940 whole entry, looked up): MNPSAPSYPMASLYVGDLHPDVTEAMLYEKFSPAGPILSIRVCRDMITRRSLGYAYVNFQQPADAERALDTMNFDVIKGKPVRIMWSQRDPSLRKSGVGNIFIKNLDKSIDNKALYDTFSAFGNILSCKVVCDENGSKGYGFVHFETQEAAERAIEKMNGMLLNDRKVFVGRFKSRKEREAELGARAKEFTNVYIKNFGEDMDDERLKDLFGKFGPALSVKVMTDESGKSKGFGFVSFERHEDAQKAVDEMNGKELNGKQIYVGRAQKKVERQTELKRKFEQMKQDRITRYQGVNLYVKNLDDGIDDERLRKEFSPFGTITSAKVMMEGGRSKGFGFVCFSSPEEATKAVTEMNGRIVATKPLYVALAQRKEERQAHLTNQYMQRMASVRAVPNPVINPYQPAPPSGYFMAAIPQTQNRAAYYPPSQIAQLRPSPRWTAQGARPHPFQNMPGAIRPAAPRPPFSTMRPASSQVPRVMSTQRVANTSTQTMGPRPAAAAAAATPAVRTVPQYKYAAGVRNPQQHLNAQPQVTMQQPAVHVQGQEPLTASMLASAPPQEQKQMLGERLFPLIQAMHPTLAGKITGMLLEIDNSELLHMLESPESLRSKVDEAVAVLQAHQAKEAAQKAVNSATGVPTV
Rce1 inh: yeast Rce1p protease inhibitors, primary screen, biochemical, fluorescence, cell-free homogeneous | yeast membranes, quenched prenylated peptide cleavage fluorescence | AID 2563, 2010 | CAAX prenyl protease 2 (Saccharomyces cerevisiae (strain ATCC 204508 / S288c)), Q03530 | calls only | 0.27% of 290,000 active;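 active means fall in fluorescence gain of 50% or more versus controls, with final raw signal at or below 3038400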;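 further: plate controls were neutral control wells for no effect and wells lacking membranes for full effect; tested at 10 µM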
Yeast UUG start: modulators of yeast start codon fidelity, primary screen, whole organism, S. cerevisiae, single point, plate reader | 0.13% of 350,000 active | S. cerevisiae UUG-firefly luciferase reporter, luminescence/redox ratio | AID 602363, 2012 | activity score, % at 18.7 µM;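 active means replicate mean at a twofold rise or more, about +100% in these data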;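 further: firefly luciferase made from a UUG start codon reports start codon fidelity; reporter light over untreated wells divided by growth signal over untreated wells; some hits fall short of that in this replicate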
eIF4H FP inh: human eIF4H binding inhibitors, primary screen, translation initiation inhibitor project, biochemical, uHTS, fluorescence polarization; eIF4H fluorescence polarization binding assay; inhibition, % at 35 µM; 0.94% of 290,000 active; AID 2012, 2009;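 active means 50% or more with normal probe brightness, or confirmed in later tests; about a fifth of its hits are not listed in these tables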;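 further: calls also rest on retests at 20 µM and on dose response follow-up; 0% = protein and probe with vehicle and 100% = probe without protein; strong numbers were not always called active; many hits fall short of the cut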
MT1-MMP act inh RFP: second read-out of MT1-MMP act inh, no call of its own (marks repeat the call); RFP signal change, %; measured here: RFP expression control read;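 0 = vehicle wells; hits needed this value within 50% of zero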
Starred values were filed as active, the others as inactive; & = joins results of further samples. The list is partial. The share of hits here may be higher or lower than overall.

Screening N#Cc1ccc(-c2nc3cc(C#N)c(C#N)cc3nc2-c2ccccc2)cc1C#N returned Env fusion inh 4, PABP polyA inh -5 and eIF4H FP inh -2.
For CCC(C)(C)NC(=O)C(c1cccs1)N(CC1CCCO1)C(=O)Cn1nnc2ccccc21 (centres undefined) the results were CSC inhib -13, MT1-MMP act inh 4, PABP polyA inh -1, Rce1 inh inactive, eIF4H FP inh -6 and MT1-MMP act inh RFP 5.
For COc1ccccc1Nc1nc(-c2ccccc2O)nc2ccccc12 the results were CSC inhib 1, Env fusion inh 16, MT1-MMP act inh -1, PABP polyA inh -1, Rce1 inh inactive, eIF4H FP inh -15 and MT1-MMP act inh RFP 0.
Screening O=S(=O)(Nc1ccc2nc(N3CCOCC3)sc2c1)c1ccc(Cl)cc1 returned CSC inhib -3, Env fusion inh -6, MT1-MMP act inh 1, Yeast UUG start -2 and MT1-MMP act inh RFP -2.
For CC(C)c1ccccc1NC(=S)NC(C)c1ccccc1 (centres undefined) the results were CSC inhib 11, Env fusion inh -1, MT1-MMP act inh 0, PABP polyA inh -3, eIF4H FP inh -1 and MT1-MMP act inh RFP 5.
Screening CC1CCCCN1CCCNC(=O)c1nn(C)c2c1CS(=O)(=O)c1ccccc1-2 (centres undefined) returned CSC inhib -17, Env fusion inh -6, MT1-MMP act inh -1, PABP polyA inh 2, Rce1 inh inactive, Yeast UUG start -7, eIF4H FP inh 7 and MT1-MMP act inh RFP 2.
`CC1(c2ccc([N+](=O)[O-])cc2)CC(C)(C)N(C(=O)c2ccccc2)c2ccccc21` (centres undefined) gave PABP polyA inh -11, Rce1 inh inactive and eIF4H FP inh 2.
`CN(CCc1ccccc1)c1cc2c(c3c1ccn3C)C1CCC2O1` (centres undefined) gave Env fusion inh 37, MT1-MMP act inh 5, Yeast UUG start -3 and MT1-MMP act inh RFP 0.
Screening COc1ccc(C(=O)N/C(=C/c2ccco2)C(=O)NC2CCS(=O)(=O)C2)cc1 (centres undefined) returned CSC inhib 7, Env fusion inh 8, MT1-MMP act inh 2, PABP polyA inh -8, Rce1 inh inactive, eIF4H FP inh -1 and MT1-MMP act inh RFP 5.
`O=C(Nc1nc(-c2ccccn2)cs1)c1cccc(S(=O)(=O)N2CCOCC2)c1` gave CSC inhib 35, MT1-MMP act inh 9, Yeast UUG start -5 and MT1-MMP act inh RFP -6.
`C=CCN1C(=O)C(C)(C)N(C(=O)c2cccc([N+](=O)[O-])c2)c2ccccc21` gave CSC inhib 1, Env fusion inh 15, MT1-MMP act inh 3, PABP polyA inh 8, Rce1 inh inactive, Yeast UUG start 11, eIF4H FP inh -2 and MT1-MMP act inh RFP -7.
For NC(=O)C1(C(N)=O)OC1c1ccc(Cl)cc1Cl (centres undefined) the results were CSC inhib -15, Env fusion inh -6, MT1-MMP act inh 7, PABP polyA inh 2, Rce1 inh inactive, Yeast UUG start -12, eIF4H FP inh -4 and MT1-MMP act inh RFP 0.
Screening Cc1ccc(C)c(S(=O)(=O)Nc2ccc(-n3cnnn3)cc2)c1 returned CSC inhib -11, MT1-MMP act inh -5, Yeast UUG start -20 and MT1-MMP act inh RFP -6.
O=C(c1cccnc1)N1CCN(CCCc2ccccc2)CC1 was read as CSC inhib -2, Env fusion inh -2, MT1-MMP act inh -1, PABP polyA inh 6, Rce1 inh inactive, Yeast UUG start -20, eIF4H FP inh 9 and MT1-MMP act inh RFP 2.
Screening O=C(c1cc2ccccc2o1)N1CCN(c2cccc(Cl)c2)CC1 returned CSC inhib -1, Env fusion inh 12, MT1-MMP act inh 3, PABP polyA inh 6, Rce1 inh inactive, Yeast UUG start -6, eIF4H FP inh -5 and MT1-MMP act inh RFP 0.
Screening Cc1ccc(C)c(N(C(=O)CNC(=O)c2ccco2)C(C(=O)NC2CCCCC2)c2cccnc2)c1 (centres undefined) returned CSC inhib 0, Env fusion inh 14, MT1-MMP act inh 2, PABP polyA inh 6, Rce1 inh inactive, Yeast UUG start -10, eIF4H FP inh -8 and MT1-MMP act inh RFP 3.
Screening COc1cccc(NC(=O)C(C#N)Cc2ccncc2)c1 (centres undefined) returned CSC inhib -10, Env fusion inh 4, MT1-MMP act inh -6, PABP polyA inh 2, Rce1 inh inactive, Yeast UUG start 5, eIF4H FP inh -6 and MT1-MMP act inh RFP -4.
`CCNC(=O)c1sc(=S)n(-c2ccc(C)cc2)c1N` gave CSC inhib 7, Env fusion inh -60, MT1-MMP act inh 3, PABP polyA inh -4, Rce1 inh inactive, Yeast UUG start -24, eIF4H FP inh -4 and MT1-MMP act inh RFP -4.
For CCOc1ccc(NC(=O)N2CCC(NC(=O)c3ccco3)CC2)cc1 the results were CSC inhib -7, Env fusion inh -66, MT1-MMP act inh 3, PABP polyA inh -1, Rce1 inh inactive, Yeast UUG start -18, eIF4H FP inh -1 and MT1-MMP act inh RFP 9.
`Nc1nnn(Cc2ccccc2)n1` gave CSC inhib -6, MT1-MMP act inh -2, PABP polyA inh -2, Rce1 inh inactive, eIF4H FP inh 4 and MT1-MMP act inh RFP 1.
`O=C(/C=C/c1cccc(F)c1)N(c1ccccn1)C1CCCCC1` gave Env fusion inh 8, MT1-MMP act inh 3, PABP polyA inh 4, Rce1 inh inactive, eIF4H FP inh -8 and MT1-MMP act inh RFP 2.
`Cc1ccc(-c2nc(C)c(C(=O)O)s2)cc1` gave CSC inhib 9, Env fusion inh -65, MT1-MMP act inh -3, PABP polyA inh 6, Rce1 inh inactive, eIF4H FP inh 2 and MT1-MMP act inh RFP 0.
O=C(NCc1ccco1)c1ccc2ccccc2n1 was read as CSC inhib -5, Env fusion inh -10, MT1-MMP act inh 2, PABP polyA inh -3, Rce1 inh inactive, eIF4H FP inh -20 and MT1-MMP act inh RFP 2.
O=C(NCc1ccco1)C(=O)c1cn(CC(=O)N2CCCCCC2)c2ccccc12 was read as CSC inhib -8, Env fusion inh 11, MT1-MMP act inh 0, PABP polyA inh -6, Rce1 inh inactive, eIF4H FP inh 18 and MT1-MMP act inh RFP 1.
Screening Cc1cccc(NC(=S)Nc2c(C)n(C)n(-c3ccccc3)c2=O)c1C returned CSC inhib 3, Env fusion inh 3, MT1-MMP act inh -4, PABP polyA inh -4, Rce1 inh inactive, eIF4H FP inh -11 and MT1-MMP act inh RFP 6.
CC(=O)Nc1ccc(C(=O)N/C(=C/c2ccccc2)C(=O)Nc2cccc(C(=O)O)c2)cc1 was read as CSC inhib -2, Env fusion inh 1, MT1-MMP act inh 0, PABP polyA inh -1, Rce1 inh inactive, eIF4H FP inh 7 and MT1-MMP act inh RFP 3.
C[C@H](NC(=O)c1ccccc1Cl)C(=O)NCc1cccs1 was read as CSC inhib -15, Env fusion inh -2, MT1-MMP act inh 0, PABP polyA inh -1, eIF4H FP inh 8 and MT1-MMP act inh RFP 1.
Cc1ccc(C(=O)CSc2ccc(-c3ccncc3)nn2)cc1 was read as Env fusion inh 9, MT1-MMP act inh -3, PABP polyA inh 1, Rce1 inh inactive, eIF4H FP inh -11 and MT1-MMP act inh RFP -14.
`CC(C)CCN1CCNC(=O)C1CC(=O)NCCCN1CCOCC1` (centres undefined) gave Env fusion inh -4, MT1-MMP act inh -1, PABP polyA inh 12, Rce1 inh inactive, Yeast UUG start -44, eIF4H FP inh 0 and MT1-MMP act inh RFP 3.
`CCC(CC)c1nnc(NC(=O)C2=COCCO2)s1` gave CSC inhib 2, Env fusion inh -12, MT1-MMP act inh 5, Rce1 inh inactive and MT1-MMP act inh RFP 3.
CCCOc1ccc(NC(=O)CC2C(=O)N(Cc3ccccc3)C(=S)N2Cc2cccs2)cc1 (centres undefined) was read as CSC inhib 34, Env fusion inh 30, MT1-MMP act inh -3, PABP polyA inh 6, Rce1 inh inactive, eIF4H FP inh 13 and MT1-MMP act inh RFP -13.
`C[C@@H]1CN([C@@H](C)CO)C(=O)CCCn2cc(nn2)CO[C@H]1CN(C)S(=O)(=O)c1ccc(Cl)cc1` gave Env fusion inh -28, MT1-MMP act inh 0, Yeast UUG start -10&11&5 and MT1-MMP act inh RFP 2.
For CCOCc1nnc(NC(=O)c2cc(C(=O)OC)cc([N+](=O)[O-])c2)s1 the results were CSC inhib 1, Env fusion inh 17, MT1-MMP act inh 3, PABP polyA inh -6, Rce1 inh inactive, eIF4H FP inh 7 and MT1-MMP act inh RFP 1.
`CCCCc1nc(NCc2ccccc2)c(C#N)c2c1CCCC2` gave CSC inhib 17, Env fusion inh 17, MT1-MMP act inh -5, PABP polyA inh 16, Rce1 inh inactive, Yeast UUG start -8, eIF4H FP inh 1 and MT1-MMP act inh RFP -5.
Screening COc1ccc2c(c1O)C(=O)c1ccccc1C2=O returned CSC inhib 7, PABP polyA inh 16, Rce1 inh inactive and eIF4H FP inh 11.
CCC12CN(C(=O)c3ccc(C)cc3)CC(CC)(CN(C(=O)c3ccc(C)cc3)C1)C2=O was read as CSC inhib -10, Env fusion inh -75, MT1-MMP act inh 7, PABP polyA inh 4, Rce1 inh inactive, eIF4H FP inh -9 and MT1-MMP act inh RFP 0.
`CCOC(=O)CNS(=O)(=O)c1cc(-c2n[nH]c(=O)c3ccccc23)ccc1C` gave Env fusion inh -2, MT1-MMP act inh 1, PABP polyA inh -7, Rce1 inh inactive, Yeast UUG start -7, eIF4H FP inh -6 and MT1-MMP act inh RFP -2.
O=C(CNc1n[nH]c(=O)[nH]c1=O)N/N=C/C=C/c1ccccc1 was read as CSC inhib -3, Env fusion inh 2, MT1-MMP act inh 7, PABP polyA inh 7, Rce1 inh inactive, Yeast UUG start 1, eIF4H FP inh -1 and MT1-MMP act inh RFP 4.
COc1cccc(CNC(=O)CN2C(=O)NC(Cc3ccccc3)(c3ccccc3)C2=O)c1 (centres undefined) was read as CSC inhib -7, Env fusion inh 13, MT1-MMP act inh -4, Yeast UUG start -12 and MT1-MMP act inh RFP -1.
Screening Cc1ccc(SC(C)c2nc(-c3ccccc3)no2)cc1 (centres undefined) returned CSC inhib 13, MT1-MMP act inh 2, PABP polyA inh -2, Rce1 inh inactive, eIF4H FP inh -6 and MT1-MMP act inh RFP 1.
`CCCCSc1ncnc2[nH]ncc12` gave CSC inhib -2, Env fusion inh 12, MT1-MMP act inh 5, PABP polyA inh 6, Yeast UUG start 7, eIF4H FP inh -7 and MT1-MMP act inh RFP -4.
For Cc1nc(NC(=O)CSc2nnc(C)n2CC2CCCO2)sc1C (centres undefined) the results were CSC inhib 0, Env fusion inh -108, MT1-MMP act inh 4, PABP polyA inh 0, Rce1 inh inactive, Yeast UUG start -16, eIF4H FP inh -4 and MT1-MMP act inh RFP 4.
For CCOC(=O)c1[nH]cc(-c2ccccc2)c1N1CCOCC1 the results were CSC inhib -12, Env fusion inh 44, MT1-MMP act inh -14, PABP polyA inh -2, Yeast UUG start -24, eIF4H FP inh -1 and MT1-MMP act inh RFP -8.
CCn1c(SCC(=O)c2c(N)n(C3CC3)c(=O)[nH]c2=O)nnc1-c1ccccc1OC was read as Env fusion inh 15, MT1-MMP act inh -3, Yeast UUG start -16 and MT1-MMP act inh RFP 5.

2 records picked at random from the list so far, as already listed:
CCn1c(SCC(=O)c2c(N)n(C3CC3)c(=O)[nH]c2=O)nnc1-c1ccccc1OC was read as Env fusion inh 15, MT1-MMP act inh -3, Yeast UUG start -16 and MT1-MMP act inh RFP 5.
For Cc1nc(NC(=O)CSc2nnc(C)n2CC2CCCO2)sc1C (centres undefined) the results were CSC inhib 0, Env fusion inh -108, MT1-MMP act inh 4, PABP polyA inh 0, Rce1 inh inactive, Yeast UUG start -16, eIF4H FP inh -4 and MT1-MMP act inh RFP 4.
